# Bioassay records (PubChem)
# Sa growth 42C – S. aureus growth inhibition at 42 and 30 °C, primary screen, LtaS inhibitor project, RN4220, two temperatures; OD600, 20 h, 42 °C; hits give low values; relative growth, % (test concentration not listed); hit rate 0.53% among 170,000; AID 720641, 2013;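 active = growth at 42 °C up to 50% and 20 or more points under that at 30 °C, or under 10% at both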;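 also: 300 nL library stock went into each well; scaled to the means of positive and negative controls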
# GIV Gai3 FP – inhibitors of GIV peptide binding to Galpha-i3, primary screen, biochemical, fluorescence polarization, FITC-GIV GBA peptide, rat Galphai3; Guanine nucleotide-binding protein G(i) subunit alpha-3 (Rattus norvegicus), P08753; 90 min; hits give low values; scaled: aluminum fluoride 0%, vehicle 100%; percent of control (FP), % (no concentration beside the values); hit rate 0.42% among 210,000;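 active = replicate mean at 85% of control or lower, very high polarization wells dropped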;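 also: wells of about 15 µL received 100 nL stock; the first replicate is given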
# Target sequence (P08753 whole entry, looked up): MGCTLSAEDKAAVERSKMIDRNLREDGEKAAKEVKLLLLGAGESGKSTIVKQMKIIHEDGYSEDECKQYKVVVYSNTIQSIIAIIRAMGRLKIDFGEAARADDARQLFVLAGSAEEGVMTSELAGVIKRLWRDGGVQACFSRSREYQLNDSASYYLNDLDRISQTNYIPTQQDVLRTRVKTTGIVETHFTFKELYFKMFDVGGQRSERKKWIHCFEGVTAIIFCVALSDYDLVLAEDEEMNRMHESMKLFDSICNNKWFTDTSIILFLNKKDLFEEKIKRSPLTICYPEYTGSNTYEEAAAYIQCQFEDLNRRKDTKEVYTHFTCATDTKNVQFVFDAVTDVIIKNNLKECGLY
# HCMV UL50-53 inh – inhibitors of HCMV UL50-UL53 interaction, biochemical, HTRF. HCMV UL50-UL53 nuclear egress complex (human cytomegalovirus). normalized percent inhibition. inhibition, % (test concentration not listed). hit rate 0.15% among 190,000. AID 1918969, 2023;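 active = both replicates at 50% or more, plus weaker picks with an unusually low signal ratio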;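 also: stock transfer was 100 nL into about 20 µL; 0% = negative control wells and 100% = wells with untagged competitor protein; inactives centre near -12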
# Sa growth 42C second temp – recorded beside Sa growth 42C, whose call it bears; relative growth, %; measured here: growth at 30 °C;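 optical density after 20 h as mean of two plates; 100% = untreated growth and lower means inhibition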
# Active calls of the source: *; nt = not tested or not shown; & = joins results of further samples.
SMILES,Sa growth 42C,Sa growth 42C second temp,GIV Gai3 FP,HCMV UL50-53 inh
CCC(C)NC(=O)C1CCN(Cc2nc(-c3ccc(OC)c(OC)c3)no2)CC1 (stereo not given),95,87,106,-30
COc1ccc(CN(C(=O)c2cc3sccc3n2C)C2CC(C)(C)NC(C)(C)C2)cc1,117,75,99,-6
COc1ccccc1C1CCN(Cc2c[nH]c3ccccc23)CC1,121,87,100,10
Cc1c(Cl)cccc1-n1cc[nH]c(=O)c1=O,nt,nt,97,-29
CCOC(=O)c1noc2nc(C)n(CC(=O)Nc3cc(C)on3)c(=O)c12,nt,nt,108,-25
CC(C)(C)NC(=O)CN1CCC(n2nnc3cc(F)ccc32)CC1,78,98,97,0
Cn1c(=O)c2c(-c3ccc(Br)cc3)n(Cc3ccc(F)cc3)cc2n(C)c1=O,90,59,107,-33
Cc1ccc2c(c1)NC(=O)C(CC(=O)NCCCN1CCN(c3cc(Cl)ccc3C)CC1)O2 (stereo not given),95,73,101,nt
Cc1cccc(-n2ncc3c(N4CCCC(C)C4)ncnc32)c1 (stereo not given),98,89,100,nt
Cc1cc(OCC(=O)Oc2cccc(-n3cnnn3)c2)ccc1Cl,nt,nt,104,-29
Nc1ccccc1C(=O)NCCc1ccncc1,93,95,106,6
CCCOc1cccc(C(=O)Nc2cc(-c3nc4ccccc4[nH]3)ccc2C)c1,90,83,104,-38
CCC1CCCCN1c1cc(C)nc2cc(-c3cc(OC)cc(OC)c3)nn12 (stereo not given),99,93,100,-7
Cn1c2nc(-[n+]3ccc(C(=O)[O-])cc3)nc-2c(O)n(C)c1=O,127,84,nt,-104
COC(=O)c1c(NC(=O)CC2Nc3cc(C)c(C)cc3NC2=O)sc(C)c1C (stereo not given),124,89,94,nt

# Next part; the last three above are carried over.
SMILES,Sa growth 42C,Sa growth 42C second temp,GIV Gai3 FP,HCMV UL50-53 inh
CCC1CCCCN1c1cc(C)nc2cc(-c3cc(OC)cc(OC)c3)nn12 (stereo not given),99,93,100,-7
Cn1c2nc(-[n+]3ccc(C(=O)[O-])cc3)nc-2c(O)n(C)c1=O,127,84,nt,-104
COC(=O)c1c(NC(=O)CC2Nc3cc(C)c(C)cc3NC2=O)sc(C)c1C (stereo not given),124,89,94,nt
O=c1cc[nH]c2cccc(Cc3ccccc3)c12,79,57,nt,3
CCOC(=O)c1c(NC(C)=O)c2c3c(sc2n1Cc1cc(C)ccc1C)CCCC3,109,89,104,-26
COc1cccc(C(=O)NC2(C(F)(F)F)C(=O)Nc3c2c(=O)[nH]c(=O)n3-c2ccc(C)cc2)c1 (stereo not given),102,87,100,-18
Cc1nc(-c2ccccc2O)n[nH]1,124,94,nt,-18
FC(F)(F)c1cc(NCc2ccccc2)nc(-c2ccccn2)n1,nt,nt,102,-11
COc1cc(NCc2cccn2-c2nnc(N3CCN(c4ccccc4)CC3)s2)cc(OC)c1,nt,nt,101,-9
Cc1cc(C(=O)CN(Cc2ccco2)S(=O)(=O)/C=C/c2ccccc2)c(C)n1C,81,96,nt,2
CCn1c(C)ccc(-c2noc(CCC(=O)Nc3cccc(Cl)c3)n2)c1=O,nt,nt,106,8
CN(C)C(=O)N(C)C1CCS(=O)(=O)C1 (stereo not given),88,105,105,5
CC(C)CNC(=O)c1cc(-c2ccc(Br)cc2)on1,85,84,102,-22
CC1=C(C#N)C(c2ccccc2C(F)(F)F)C2=C(O1)C(=O)CCC2 (stereo not given),108,70,nt,-19
CCc1c(C)nc2nc(NC(C)=O)[nH]n2c1=O,96,88,97,-10
O=C(NCc1ccc(S(=O)(=O)NC2CCCCC2)s1)c1ccccc1,119,83,96,-1
COc1ccccc1-c1noc(-c2ccc(N3CCN(C)CC3)c([N+](=O)[O-])c2)n1,96,87,100,-44
CCOC(=O)c1ccccc1NC(=O)CSc1nc2cn(CC)nc2c(=O)n1CCc1ccccc1,nt,nt,103,-4

# 5 neighbouring records already listed:
SMILES,Sa growth 42C,Sa growth 42C second temp,GIV Gai3 FP,HCMV UL50-53 inh
O=c1cc[nH]c2cccc(Cc3ccccc3)c12,79,57,nt,3
CCOC(=O)c1c(NC(C)=O)c2c3c(sc2n1Cc1cc(C)ccc1C)CCCC3,109,89,104,-26
COc1cccc(C(=O)NC2(C(F)(F)F)C(=O)Nc3c2c(=O)[nH]c(=O)n3-c2ccc(C)cc2)c1 (stereo not given),102,87,100,-18
Cc1nc(-c2ccccc2O)n[nH]1,124,94,nt,-18
FC(F)(F)c1cc(NCc2ccccc2)nc(-c2ccccn2)n1,nt,nt,102,-11

# Continued:
SMILES,Sa growth 42C,Sa growth 42C second temp,GIV Gai3 FP,HCMV UL50-53 inh
Cc1ccccc1CN1C=C(C(N)=O)C(C(F)(F)F)CC1 (stereo not given),88,86,103,-16
COC(=O)CSc1nnc2n(Cc3ccc(C)cc3)c(=O)c3ccccc3n12,97,94,nt,12
CC(=O)Nc1ccc(O[C@@H]2O[C@H](CO)[C@@H](O)[C@H](O)[C@H]2NC(C)=O)cc1,98,87,105,-11
COc1ccc(Cn2c(CCC(=O)NCCC3=CCCCC3)nc3ncccc3c2=O)cc1,95,94,110,nt
Cc1ccc(CNc2ncccc2-c2nc(-c3ccc(Cl)cc3)no2)cc1,91,83,102,-23
CCOC(=O)c1[nH]c(=O)[nH]c1CNc1ccccc1C#N,127,89,100,-4
CCCCc1nnc(SCC(=O)N2CCc3ccccc32)n1C,95,103,104,-2
COc1ccc(N(C)S(=O)(=O)c2c(C)noc2C)c(OC)c1,98,99,105,nt
O=C(CCCn1c(=O)c2cccn2c2ccccc21)NC1CCCc2ccccc21 (stereo not given),104,84,105,nt
CC1(C)COC(N2c3ccccc3Sc3ccccc32)=N1,97,95,nt,-2
OCCNc1nc(N2CCN(c3ccccc3)CC2)nc2ccccc12,113,83,nt,-5
O=CN/N=C/c1c(O)ccc2ccccc12,112,95,nt,-17
Cn1c(=O)oc2cc(S(=O)(=O)NC(Cc3ccccc3)C(=O)NCc3ccc(F)cc3)ccc21 (stereo not given),108,91,100,-5
O=C(O)CC1(CC(=O)Nc2cccc3nsnc23)CCCCC1,111,80,101,-54
CCc1ccc(NC(=O)CCCN2C(=O)CCC2=O)cc1,100,102,105,-6

# 3 entries out of the list, sorted by length of the SMILES, low to high.
SMILES,Sa growth 42C,Sa growth 42C second temp,GIV Gai3 FP,HCMV UL50-53 inh
O=C(O)CC1(CC(=O)Nc2cccc3nsnc23)CCCCC1,111,80,101,-54
COC(=O)CSc1nnc2n(Cc3ccc(C)cc3)c(=O)c3ccccc3n12,97,94,nt,12
COc1ccc(Cn2c(CCC(=O)NCCC3=CCCCC3)nc3ncccc3c2=O)cc1,95,94,110,nt

# Carrying on:
SMILES,Sa growth 42C,Sa growth 42C second temp,GIV Gai3 FP,HCMV UL50-53 inh
O=C1CCC2(C(=O)O)Sc3ccccc3N12 (stereo not given),97,87,100,-14
O=C(Nc1ccc(Cl)cc1)C(F)(F)F,80,93,nt,-4
Cn1c(=O)c(-[n+]2ccccc2)c([O-])c2ccccc21,87,81,100,-34
O=C(Cc1ccc2c(c1)OCCO2)Nc1ccc(OC(F)(F)F)cc1,112,98,nt,-27
O=C(CCCn1c(=O)c2cccn2c2ccc(F)cc21)NCc1ccc(Cl)cc1,111,74,100,-11
Cc1cc2c(=O)n(CC(=O)Nc3ccc(F)cc3F)cnc2s1,98,93,101,nt
COC(=O)c1cc(S(=O)(=O)N2CCCC2C(=O)Nc2ccc3c(c2)OCCO3)cn1C (stereo not given),nt,nt,101,-14
O=C(O)Cc1sc(-c2ccc(Cl)cc2)nc1O,98,75,96,-16
Cc1csc2nc(COc3ccccc3NC(=O)c3ccccc3Cl)cc(=O)n12,99,89,99,-16
Cc1ccc(Cl)cc1NC(=O)Cn1c(=O)cc(C)c2c(C)nn(C)c21,111,97,108,nt
COCCn1c(N)c(-c2nc3ccccc3[nH]2)c(O)c1N=Nc1cc(OC)c(OC)c(OC)c1,106,97,nt,-3
CCN1CCN(c2cc(C)c3cc(NC(=O)c4cccc(C(F)(F)F)c4)ccc3n2)CC1,112,87,98,-31
CN(C)C(=O)COC(=O)c1ccccc1C(=O)c1ccccc1,97,88,nt,-37
CC1CC(=O)N(CC(N)=O)c2ccccc2S1(=O)=O (stereo not given),119,99,98,nt
Cc1c(C(=O)c2ccc3c(c2)OCCO3)oc2ccc(Cl)cc12,94,100,nt,3
Cc1ccc2c(CC(=O)NCC(=O)OCc3ccccc3)coc2c1,96,91,nt,4
CCOc1ccc(NC(=O)CN(Cc2ccccc2)S(=O)(=O)c2ccc(Cl)cc2)cc1,101,92,100,-14
O=C(O)CCC(=O)NC1CCCCNC1=O (stereo not given),107,92,105,-32
CC(=O)N1CCCC1c1nc2ccccc2n1CCOc1ccc(Cl)cc1 (stereo not given),nt,nt,107,-18
Cn1ccnc1SCC(=O)NC1CCCc2ccccc21 (stereo not given),106,91,nt,-14
O=c1c2c3c(sc2nc2n1CCC2)CCCC3,nt,nt,111&106,-1
N#Cc1c(Nc2ccccc2)sc2c(N)nc(N)nc12,88,88,nt,-4
COc1cc(SC)ccc1C(=O)NCC#N,105,89,99,12
Cc1ccc(N2C(=O)c3ccccc3C2=O)cc1,101,92,102,nt
Cc1nc(N2CCOCC2)c2c(C(=O)N3CCN(c4cccc(C)c4C)CC3)c(C)oc2n1,103,97,108,nt
COc1ccc(C(=O)NC(=NCc2ccncc2)Nc2ccccc2)cc1OC,nt,nt,103,12
Cc1ccc(N(C(=O)Cn2nnc3ccccc32)C(C(=O)NCc2ccco2)c2cccnc2)cc1C (stereo not given),124,102,106,-14
CCn1c(SCC(=O)N(C)Cc2ccccc2)nc2ccccc21,129,95,nt,5
CC1CCC(C(C)C)C(OC(=O)CSC#N)C1 (stereo not given),42,55,nt,-19
CN(C)c1c(N)c(=O)oc2ccccc12,85,88,107,-39
Cc1cc(C)c(/C=C/c2onc(C)c2S(=O)(=O)N2CCCC(C(=O)N3CCCCC3)C2)c(C)c1 (stereo not given),nt,nt,102,-9
O=C1O/C(=C\C=C\c2ccccc2)c2ccccc21,nt,nt,102,11
COc1ccc(CSc2nc(O)cc(=O)n2CC(C)C)cc1F,128,101,nt,3
Cc1cccc(C)c1-n1ncc(C(=O)O)c1C1CCN(C(=O)OC(C)(C)C)CC1,107,85,101,-18
Cc1ccc(NC(=O)Cn2c(=O)n(CCc3ccccc3)c(=O)c3c4c(sc32)CCCC4)c(C)c1,106,92,105,-5
Cc1cc(C)cc(-n2ccnc2SCC(=O)Nc2nnc(C)s2)c1,111,88,99,nt
Cc1cc(C)n2nc(SCC(=O)N3CCC(C)CC3)nc2n1,101,95,nt,-2
C(=C\c1ccccc1)/C=N/N1CCN(Cc2cccc3ccccc23)CC1,77,90,101,nt
COc1cccc(C(=O)NC(=NCCc2c[nH]c3ccc(OC)cc23)Nc2nc(C)cc(C)n2)c1,98,89,101,15
COc1ccc(C(=O)CCN2CCC(C)CC2)cc1,93,84,103,nt
COC(=O)c1ccccc1NC(=O)c1cc2nc(-c3ccccc3)cc(-c3ccccc3)n2n1,92,91,100,-20
O=C(CCc1cn(Cc2ccc(F)cc2)c2ccccc12)NC1CCCC1,97,91,103,nt
O=C(NCCc1ccccc1)c1ccc2c(c1)N(Cc1ccc(F)cc1)C(=O)CS2,88,100,96,nt
O=C1c2ccccc2C(=O)N1CCC(=O)N1c2ccccc2Sc2ccccc21,nt,nt,103,-13
CCC(C)NC(=O)Cn1c(=O)n(-c2ccc(Cl)c(Cl)c2)c(=O)c2c(C)c(C(=O)N(CC)CC)sc21 (stereo not given),84,85,99,nt
CC1=C(c2ccc(C)c(C)c2)S(=O)(=O)NC1=NCC(=O)NCCc1ccco1,72,88,121,-9
Cc1ccc(-n2nc3c(=O)n(CC(=O)NCc4ccccc4Cl)nc(C)c3c2C)c(C)c1,nt,nt,102,-24
CCOC(=O)N1CCN(S(=O)(=O)c2cc(OC)ccc2OC)CC1,117,99,103,nt
COc1ccc2oc(=O)c(C(=O)NCCc3c(C)[nH]c4c(C)cccc34)cc2c1,99,83,105,-16
O=C(c1ccc2snnc2c1)N(CCO)c1ccccc1,111,95,109,0
N#Cc1c(C(F)(F)F)cc(=O)n2c1[nH]c1ccccc12,45,22,111,-77
CCOC(=O)C1=C(N)OC2=C(C(=O)CC(c3ccccc3)C2)C1c1ccc(OC)cc1 (stereo not given),nt,nt,105,-11
Cc1[nH]c2ccccc2c1C1(O)C(=O)N(Cc2ccccc2)c2ccc(Cl)cc21 (stereo not given),87,59,109,-29
Cc1ccc(C2Nc3ccccc3-n3c(-c4ccccc4)c4c(=O)n(C)c(=O)n(C)c4c32)o1 (stereo not given),120,87,111,-9
CCc1ccc(C=C2C(=O)N(C)C(=O)N(C)C2=O)cc1,111,108,94,2
O=C(Cn1cc(/C=C2\SC(=Nc3ccccc3)N(Cc3ccco3)C2=O)c2ccccc21)N1CCOCC1,90,86,106,-32
Cc1cc(C)c(C#N)c(SCc2nc(COc3cccc(C(F)(F)F)c3)no2)n1,113,96,107,-12
CCOC(=O)N1CCC(NC(=O)CN2C(=O)CSc3nc(C)cc(C)c32)CC1,89,80,99,0
CCCCN(CC)Cc1c(O)ccc2c(-c3ccccc3)cc(=O)oc12,102,87,107,-64
Cc1ccc2[nH]c3c(=O)n(CC(=O)Nc4ccc(Br)cc4C)ncc3c2c1,87,91,103,nt

# Compounds as they come. Share with any hit: about 0.83%.
